Source: PubChem
HPGD inh: qHTS Assay for Inhibitors of HPGD (15-Hydroxyprostaglandin Dehydrogenase); purified HPGD, NADH fluorescence kinetic, PGE2 substrate; 15-hydroxyprostaglandin dehydrogenase [NAD(+)] (Homo sapiens), P15428; Potency, µM, for inactives: at the highest dose activity change, negative = inhibition, hits mostly inhibitors; 150,000 compounds, 4.3% hits; AID 894, 2007; active = well fitted inhibition curve with a large enough effect (not every such curve was filed as active); inconclusive = small, poorly fitted or top-dose-only effect, or another doubt; inactive = no such curve, though single readings can be large or run the other way;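 further: top concentration of the series not given in the record; plate controls included wells without enzyme; inactives centre near -10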
Target sequence (P15428 whole entry, looked up): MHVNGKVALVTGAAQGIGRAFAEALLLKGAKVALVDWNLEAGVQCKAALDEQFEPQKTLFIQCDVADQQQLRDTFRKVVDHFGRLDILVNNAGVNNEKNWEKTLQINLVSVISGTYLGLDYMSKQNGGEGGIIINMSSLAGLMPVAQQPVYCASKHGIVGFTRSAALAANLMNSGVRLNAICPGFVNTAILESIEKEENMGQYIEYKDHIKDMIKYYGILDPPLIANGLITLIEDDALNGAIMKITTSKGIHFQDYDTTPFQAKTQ
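NADH formation kinetics: reaction with 30 uM PGE2 and 1 mM NAD+ (final), 20 nM enzyme, Tris-HCl pH 8 with Tween 20, after 15 min compound preincubation at room temperature. Fluorescence change, last versus first of five reads.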
The depositor's hits bear a star; ? = inconclusive. On the % scale 0 is the no-effect control and ±100 the full control effect; potency means the concentration at half of the fitted maximal effect. Some of the compounds tested. The share of hits here may be higher or lower than overall.

HPGD inh	Molecule
-13.6%	c1cnc(NC2CCCCCC2)nc1
?	COc1cc2nc(-c3ccc(Br)o3)oc(=O)c2cc1OC
-14.0%	C/C(CC(=O)NC1CCCC1)=N\NC(=O)c1ccc([N+](=O)[O-])c(Cl)c1
-6.4%	COC(=O)C1C(O)=C(C=Nc2ccc(N)cc2)C(=O)CC1(C)C (centres undefined)
-5.7%	COc1ccc(Nc2c(C)cccc2C)cc1
-4.5%	COc1ccc(C)cc1NC(=O)CSc1nnnn1Cc1ccccc1
-2.6%	CC1(C)Oc2ccccc2OC1(O)c1ccc2ccccc2n1 (centres undefined)
7.4%	CCn1cc(/C=C/C(=O)NCc2c(C)nn(C)c2C)cn1
-23.5%	Cc1ccc(-n2cc(-c3ccccc3)[nH]c2=O)cc1F
-19.4%	Cc1onc(-c2ccccc2Cl)c1C(=O)N/N=C(\N)COc1ccc(Cl)cc1
?	COc1ccc(-c2cn3cccnc3n2)cc1NC(=O)c1cccs1
-4.5%	CC12CN3CC(C)(CN(C1)C3c1ccccc1Cl)C2O (centres undefined)
?	CCc1ccc2oc(C(=O)NCc3ccncc3)c(C)c2c1
-15.5%	c1csc(C(c2nnnn2C2CCCC2)N2CCCC3(CCCCC3)C2)c1 (centres undefined)
-29.3%	C=CCNC(=O)/C(C#N)=C/c1c(C)nn(-c2ccccc2)c1Cl
-5.0%	CCc1c(C(=O)NCCc2ccc(OC)c(OC)c2)[nH]c(C)c1C(C)=O
22.4µM*	CCN1C(=O)CC(N2CCN(c3ccc(C(=O)c4ccccc4)cc3)CC2)C1=O (centres undefined)
-4.7%	CCCN(CCC)C(=O)CP(=O)(c1ccccc1)c1ccccc1
-2.0%	CCOC(=O)C(Sc1ncn[nH]1)c1ccccc1 (centres undefined)
-9.4%	CC(C)(C)c1cc(NC(=O)c2ccc(OC3CCCC3)cc2)no1
-6.8%	COC(=O)c1ccc(C(NC(=O)OCc2ccccc2)/C(=C/[C@@H](C)C(=O)N[C@@H](CO)Cc2ccccc2)c2cccnc2)cc1 (some centres undefined)
-12.2%	COc1ccc(-c2cc3c(=O)n(CC(=O)NC4CCN(Cc5ccccc5)CC4)ncn3n2)cc1
?	O=c1oc2cc(OCc3nn[nH]n3)ccc2c2c1CCCC2
-4.5%	CCC(CO)NC(=O)c1cc2c(s1)CCC2 (centres undefined)
-3.7%	CC1(C)N=C(c2cccc(F)c2)C(=O)N1
-6.7%	Cn1c(=O)c2[nH]c(NCC3CCCO3)nc2n(-c2ccccc2)c1=O (centres undefined)
-28.4%	COC(=O)C1=C(C(=O)OC)C(c2cc(Br)ccc2O)c2sc(=O)[nH]c2S1 (centres undefined)
-3.9%	CCOC(=O)c1sc(NC(=O)CCCn2nc([N+](=O)[O-])cc2C)c(C(=O)OCC)c1C
-9.9%	CC(C)(C)c1ccc(S(=O)(=O)N2CCC(c3nc4ccc(Cl)cc4[nH]3)CC2)cc1
-16.6%	CC(NC(=O)c1ccc(F)cc1)c1ccccc1 (centres undefined)
7.08µM*	O=C1C=CC(=O)N1c1ccc(OC(F)F)cc1
-3.5%	CCCn1c(=S)[nH]c2cc(C(=O)N3CCN(c4ccccc4OC)CC3)ccc2c1=O
-12.8%	Cc1[nH]c2ccccc2c1/C=C/C(=O)c1ccccc1
-3.8%	CC1CCCN(C(=O)Nc2cccc(NC(=O)N3CCCC(C)C3C)c2)C1C (centres undefined)
-0.8%	CCC(=O)Nc1cc(ON=C(C)C)cc([N+](=O)[O-])c1
?	Cc1nnc(NC(=O)/C=C/c2ccco2)s1
-1.2%	Clc1ccc(-n2cnnn2)cc1
-2.8%	CCOc1ccc(C(=O)NC2CCN(S(C)(=O)=O)CC2)cc1
-15.0%	COc1ccc(S(=O)(=O)N2CCCC2C(=O)Nc2ccc(O)cc2)cc1 (centres undefined)
-6.0%	Cc1nc(NC(=O)COC(=O)c2cc3c(s2)CCC(C)C3)c(Cl)cc1Cl (centres undefined)
-25.9%	O=C(CSc1nnc([C@@H]2CCCN2)o1)c1ccc(Cl)cc1
?	Cc1ccccc1N1CCN(CCCN2C(=O)CC(=C(c3ccccc3)c3ccccc3)C2=O)CC1
-13.1%	Cc1[nH]ccc(=O)c1OCc1ccc(Cl)cc1
1.26µM*	COC(=O)c1cc(NC(=O)c2ccc(Cn3cc(Cl)cn3)o2)cc(C(=O)OC)c1
?	COc1ccccc1N(C(=O)c1snc(C(N)=O)c1N)C(C(=O)NCCC(C)C)c1ccco1 (centres undefined)
?	COc1ccccc1-c1cc(C(=O)N/N=C/c2ccc(C)s2)c2ccccc2n1
-13.2%	O=C1CC(c2ccc3c(c2)OCO3)c2cc3c(cc2N1)OCO3 (centres undefined)
-9.6%	CC(=C/C(=O)O)/C=C/c1ccco1
-5.4%	O=C(O)CCC(=O)NNC(=O)CCC(=O)NCc1ccccc1
?	COC(=O)c1ccccc1NC(=O)Cn1c(SC)c(F)cnc1=O

Remaining list, next part:
HPGD inh	Molecule
-3.6%	COC(=O)CN1C(=O)C(O)(CC(=O)c2cccc(Br)c2)c2ccccc21 (centres undefined)
-0.7%	Cc1c(Br)cc(C(=O)OC2CCN(C)CC2)c(C)c1C
-18.7%	O=C(COc1ccccc1)OCc1csc(Nc2ccccc2)n1
?	C=CCn1c(SCC(=O)NC2CCCC2)nc2scc(-c3ccco3)c2c1=O
-29.6%	Cc1noc(/C=C/N(C)C)c1S(=O)(=O)N1CCc2ccccc21
-11.1%	COc1ccc(Oc2nc3c(c(=O)n(C)c(=O)n3C)n2Cc2ccccc2)cc1
-10.3%	COc1cccc(-c2nc(CS(=O)(=O)CC(=O)N3CCN(c4ccccn4)CC3)c(C)o2)c1
-1.8%	CCCCC1(C)Cc2ccccc2C(=S)N1 (centres undefined)
-9.4%	CC(Nc1ccccc1)C(=O)Nc1ccc(F)cc1 (centres undefined)
-0.8%	O=C(NCCN1CCCC1)c1cc(-c2ccncc2)nc2ccc(S(=O)(=O)N3CCOCC3)cc12
-17.4%	O=C(O)CCN1C(=S)CSC1=S
-15.9%	Cc1cccc(/C=N/NC(=O)C(C)Nc2cccc3ccccc23)n1 (centres undefined)
-8.5%	CCOC(=O)CN1N=C(/C=C/c2ccc(C)cc2)CCC1=O
1.9%	CN(CC(=O)O/N=C(\N)c1ccc([N+](=O)[O-])cc1)S(=O)(=O)c1ccccc1
-1.8%	CC1SC(c2ccc(Cl)cc2Cl)NC1=O (centres undefined)
-8.9%	C=CCN1C(=O)CSc2ccc(C(=O)OCC)cc21
-8.5%	O=C(/C=C/c1cccc([N+](=O)[O-])c1)N1CCN(C(=O)c2ccco2)CC1
?	CCN(CC)c1ccc2cc(C=O)c(=O)oc2c1
-9.3%	Nc1ncc(-c2ccc([N+](=O)[O-])cc2)cn1
28.2µM*	CSc1ccccc1NC(=O)COc1ccc(Cl)cc1
-11.5%	CCCCC(=O)Nc1sc2c(c1C(=O)OCC)CCC(C=O)=C2Cl
-14.0%	Cn1c(=O)c2nnn(/N=C(\c3ccccc3)C3CC3)c2n(C)c1=O
-12.4%	C/C(=N\NC(=O)c1ccncc1)c1ccc2ccccc2c1O
-7.5%	CCc1ccc(N2C(=O)/C(=C/c3cccs3)N(CC(=O)OC)C2=S)cc1
-9.9%	Cc1noc(/C=C/c2ccc(-c3ccccc3Cl)o2)c1[N+](=O)[O-]
-11.3%	CCOC(=O)Cc1csc(NC(=O)c2ccc(Cl)nc2)n1
-5.5%	O=C(O)c1cccc(NS(=O)(=O)/C=C/c2ccccc2)c1
-3.0%	CC(CCc1ccccc1)NC(=O)/C=C/c1ccc(Cl)cc1 (centres undefined)
-2.2%	CS(=O)(=O)N1CCN(c2ccccc2NC(=O)Cc2ccccc2)CC1
-19.0%	O=C1c2ccccc2C(=O)N1CSc1nnc(Nc2ccccc2F)s1
-11.9%	CCC(C)[C@H](NC(=O)NCc1ccccc1)C(=O)O (some centres undefined)
?	Cn1c(NCc2ccco2)nc2c1c(=O)n(Cc1ccc(Cl)c(Cl)c1)c(=O)n2C
-5.5%	CC(OC(=O)C1CC=CCC1C(N)=O)C(Cl)=C(Cl)Cl (centres undefined)
-8.6%	CCCCOc1ccc(N2C(=O)CC(N(O)c3ccccc3)C2=O)cc1 (centres undefined)
-3.6%	OCCNCCOCCOc1ccccc1-c1ccccc1
?	CC(Oc1ccc(Cl)cc1Cl)C(=O)Nc1cccnc1 (centres undefined)
?	COC1=CC(=O)CC(C)C12Oc1c(Cl)c(OC)cc(OC)c1C2=O (centres undefined)
-29.9%	O=C(c1ccccc1)n1ccc2ccccc21
-20.8%	Cc1cc(C)n2nc(SCc3cc(=O)oc4cc(C)c(C)cc34)nc2n1
-6.6%	O=C(Cn1c(=O)sc2ccccc21)NCc1ccco1

Taken from above, 16 compounds:
HPGD inh	Molecule
-9.9%	Cc1noc(/C=C/c2ccc(-c3ccccc3Cl)o2)c1[N+](=O)[O-]
-11.3%	CCOC(=O)Cc1csc(NC(=O)c2ccc(Cl)nc2)n1
-5.5%	O=C(O)c1cccc(NS(=O)(=O)/C=C/c2ccccc2)c1
-3.0%	CC(CCc1ccccc1)NC(=O)/C=C/c1ccc(Cl)cc1 (centres undefined)
-2.2%	CS(=O)(=O)N1CCN(c2ccccc2NC(=O)Cc2ccccc2)CC1
-19.0%	O=C1c2ccccc2C(=O)N1CSc1nnc(Nc2ccccc2F)s1
-11.9%	CCC(C)[C@H](NC(=O)NCc1ccccc1)C(=O)O (some centres undefined)
?	Cn1c(NCc2ccco2)nc2c1c(=O)n(Cc1ccc(Cl)c(Cl)c1)c(=O)n2C
-5.5%	CC(OC(=O)C1CC=CCC1C(N)=O)C(Cl)=C(Cl)Cl (centres undefined)
-8.6%	CCCCOc1ccc(N2C(=O)CC(N(O)c3ccccc3)C2=O)cc1 (centres undefined)
-3.6%	OCCNCCOCCOc1ccccc1-c1ccccc1
?	CC(Oc1ccc(Cl)cc1Cl)C(=O)Nc1cccnc1 (centres undefined)
?	COC1=CC(=O)CC(C)C12Oc1c(Cl)c(OC)cc(OC)c1C2=O (centres undefined)
-29.9%	O=C(c1ccccc1)n1ccc2ccccc21
-20.8%	Cc1cc(C)n2nc(SCc3cc(=O)oc4cc(C)c(C)cc34)nc2n1
-6.6%	O=C(Cn1c(=O)sc2ccccc21)NCc1ccco1

Next section
HPGD inh	Molecule
-7.2%	COCCn1c(-c2cccs2)nc2c(c(=O)c3ccccc3n2C)c1=O
-2.1%	CCN1C(=O)c2cccc3c(NC(=O)C(C)(C)C)ccc1c23
-2.8%	Cc1ccc(C(=O)OCC(=O)N2CCc3ccccc32)cc1
?	COc1cc(-c2ncc3ccccn23)cc(OC)c1OC
-13.9%	C=CCc1c(OC(C)=O)c2ccccc2n(C)c1=O
-0.8%	CCNC(=S)N1CCN(CCN=CC2=C(O)CC(c3cccs3)CC2=O)CC1 (centres undefined)
?	CCCC(=O)Nc1cc(-c2cn3cccnc3n2)ccc1OC
-9.9%	COC(=O)C1=C(O)/C(=C\c2ccc(CNS(=O)(=O)c3ccc(Cl)cc3)o2)N=C1C
-10.4%	COc1ccc(/C(N)=N/OC(=O)c2cccc([N+](=O)[O-])c2)cc1OC
-12.6%	CC(C)Oc1ccc(CNC(=S)N/N=C/c2ccc([N+](=O)[O-])cc2)cc1
-23.2%	O=C1CC(N2CCN(c3cccc(C(F)(F)F)c3)CC2)C(=O)N1c1ccc(F)cc1 (centres undefined)
-9.7%	COC(=O)c1sc(N2C(=O)c3oc4ccccc4c(=O)c3C2c2cccs2)nc1C (centres undefined)
-14.4%	CCOc1ccc(C(CC(=O)O)NC(=O)c2cccs2)cc1 (centres undefined)
-9.7%	CCCCC1=NC2(CCCC2)C(=O)N1Cc1ccc(-c2ccccc2-c2nn[nH]n2)cc1
-6.7%	Cn1c(SCC(=O)Nc2cccc(NC(=O)c3cccs3)c2)nnc1-c1ccncc1
-0.2%	Cc1nc2ncnn2c(C)c1CCC(=O)NCCCN1CCN(c2cccc(Cl)c2)CC1
-5.0%	CCn1nc(C)c(/C=N/NC(=O)c2ccoc2C)c1C
-11.7%	CN(CCC#N)c1ccc(/C=C(\C#N)c2ccccn2)cc1
-10.7%	Cc1c(Cl)c(C(=O)NNC(=S)Nc2ccccc2)nn1C
?	CCOc1ccc2[nH]c(=O)c(CN(CCCO)C(C)=O)cc2c1
-15.3%	Nc1nc(C(=O)N2CCOCC2)nn1C(=O)c1ccc(Cl)cc1
-7.7%	O=C(Nc1ccc(F)cc1)C(Sc1nnc2ccccn12)c1ccccc1 (centres undefined)
-5.2%	N#CC(c1ccccc1)(c1ncc(C(F)(F)F)cc1Cl)N1CCOCC1 (centres undefined)
?	O=C1Nc2ccccc2CCC1Sc1nnc(-c2ccc(Cl)cc2)s1 (centres undefined)
-11.8%	COc1ccc(S(=O)(=O)N2CCCC(C(=O)NCc3ccncc3)C2)cc1Cl (centres undefined)
-12.2%	Cc1[nH]c(C(=O)N/N=C/c2ccc(C(=O)O)cc2)c(C)c1C(=O)N/N=C/c1ccc(C(=O)O)cc1
-20.5%	O=S(=O)(NCc1ccccc1)c1ccc(Cl)cc1
-6.9%	COc1cccc(C2C(C#N)=C(N)OC3=C2C(=O)CCC3)c1OC(=O)c1ccco1 (centres undefined)
-17.8%	C=CCOc1cccc(/C=C2\C(=O)N(Cc3ccc(C)cc3)C(C)=C2C(=O)OC)c1
